Source: PubChem (National Center for Advancing Translational Sciences (NCATS))
AmpC nodet inh: Promiscuous and Specific Inhibitors of AmpC Beta-Lactamase (assay without detergent) | P00811 | AmpC nitrocefin hydrolysis, absorbance 480 nm, no detergent; potencies from a single point are estimates | Potency, µM (series often up to 28.7 µM), for inactives: at the highest dose activity change, negative = inhibition | 71,000 tested, 1.8% active | AID 585, 2007; active = falling curve, for most hits resting on a single point; inconclusive = weak or doubtful change; inactive = flat or rising curve; note: % of control where 0% means no effect; about half of the hits show no inhibition at the top dose; a quarter of the inactives give rising signals
Target sequence (P00811 whole entry, looked up): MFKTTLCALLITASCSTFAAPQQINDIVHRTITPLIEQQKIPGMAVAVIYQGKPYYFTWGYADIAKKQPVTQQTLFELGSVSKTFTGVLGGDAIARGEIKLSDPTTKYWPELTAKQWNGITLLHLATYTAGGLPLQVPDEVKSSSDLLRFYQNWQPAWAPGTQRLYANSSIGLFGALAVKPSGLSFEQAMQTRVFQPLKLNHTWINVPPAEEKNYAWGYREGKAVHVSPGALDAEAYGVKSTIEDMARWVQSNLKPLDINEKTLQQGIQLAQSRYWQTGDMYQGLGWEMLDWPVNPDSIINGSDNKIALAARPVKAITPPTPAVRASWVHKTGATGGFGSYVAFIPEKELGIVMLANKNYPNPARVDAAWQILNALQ
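Enzyme, pH 7.0 phosphate. Compound titrations were pre-incubated with AmpC for 15 min at room temperature before nitrocefin (stock 800 uM) addition; product formation was recorded at 480 nm every 20 s for 4 min.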
* marks the source's active call; other numbers are inactive results; ? = inconclusive; [ ] = another dose, or the depositor's remark. Potency is the fitted concentration of half-maximal effect. This is a subset; the hit share may differ from the screen's.

Sample of the layout:
SMILES | AmpC nodet inh
Cc1cc(=O)n2nc(N3CCC(C(=O)N4CCN(C)CC4)CC3)sc2n1 | -0.1%
Cc1cc(C)n(-c2nc3nonc3nc2-n2nc(C)cc2C)n1 | 2.4%
Cn1c(C(=O)OC(C(=O)NC2CCCC2)c2cccnc2)cc2sccc21 (stereo unspecified) | 58.6%
COc1ccc(S(=O)(=O)Nc2ccccc2C(=O)NC(C)C)cc1OC | 17.3%
COc1ccc(N2CCN(c3ccc(NC(=O)C4CCCCC4)cc3C#N)CC2)cc1 | -19.9%

Main list (from the top)
SMILES | AmpC nodet inh
Cc1cc(=O)n2nc(N3CCC(C(=O)N4CCN(C)CC4)CC3)sc2n1 | -0.1%
Cc1cc(C)n(-c2nc3nonc3nc2-n2nc(C)cc2C)n1 | 2.4%
Cn1c(C(=O)OC(C(=O)NC2CCCC2)c2cccnc2)cc2sccc21 (stereo unspecified) | 58.6%
COc1ccc(S(=O)(=O)Nc2ccccc2C(=O)NC(C)C)cc1OC | 17.3%
COc1ccc(N2CCN(c3ccc(NC(=O)C4CCCCC4)cc3C#N)CC2)cc1 | -19.9%
N[C@@]1(C(=O)O)CN[C@H](C(=O)O)C1 | -2.0%
CCN(C(=O)c1cc2cc(OC)ccc2oc1=O)c1ccccc1 | 7.2%
CN1CCN(c2cc(-c3ccoc3)ncn2)CC1 | -1.5%
COc1ccc2[nH]cc(C3=CCNCC3)c2c1 | 27.3%
CCOC(=O)C(C)Oc1cccc2c(=O)n(CC(=O)N3CCN(C(=O)OCC)CC3)ccc12 (stereo unspecified) | -1.9%

Looked up by structure from above, two records:
SMILES | AmpC nodet inh
Cc1cc(=O)n2nc(N3CCC(C(=O)N4CCN(C)CC4)CC3)sc2n1 | -0.1%
COc1ccc(S(=O)(=O)Nc2ccccc2C(=O)NC(C)C)cc1OC | 17.3%

Going on with the list.
SMILES | AmpC nodet inh
CCOC(=O)c1cnc(Nc2nc3ccccc3o2)nc1CSc1nnc(C)s1 | 46.5%
CCCCCOc1ccc(N2C(=O)CC(N(O)c3ccccc3)C2=O)cc1 (stereo unspecified) | ?
Cc1cc(C)nc(SCCC(=O)N2CCOCC2)n1 | 0.6%
NS(=O)(=O)c1ccc(CCNC2CC(=O)N(Cc3ccccc3)C2=O)cc1 (stereo unspecified) | 10.1%
O=c1[nH]c(C2CCCN(S(=O)(=O)c3ccc(F)cc3)C2)nc2c1nnn2Cc1ccccc1 (stereo unspecified) | 29.2%
CC(C)C[C@@H](CC(=O)N[C@H](CC(=O)N[C@@H]1CCNC[C@H]1C(=O)N[C@H](CC(=O)N[C@@H](CCC(=O)O)CC(=O)O)Cc1ccccc1)C(C)C)NC(=O)[C@@H]1CNCC[C@H]1N | 50.7%
Cc1ccccc1NC1=NCC(C)S1 (stereo unspecified) | 4.2%
N#Cc1cccc(NC(=O)c2nc(-c3ccccc3)n(-c3ccccc3)n2)c1 | -4.8%
CCN(CC)CCn1c(-c2ccccc2)nc2c(NCCO)nc(C)nc21 | 5.2%
O=C(c1ccccc1)[C@H](Nc1ccc2ccccc2c1)c1ccccc1 | -16.9%[5.75 µM]
COc1cccc(NC(=O)N2CCN(Cc3nc4ccccc4c(=O)[nH]3)CC2)c1 | 19.7%
COc1ccc(-n2nc(C(=O)Nc3ccc4c(c3)OCO4)c3ccccc3c2=O)cc1 | 18.6%
On1c(-c2ccco2)nc2c1CCc1nonc1-2 | -0.3%
O=C(O)c1ccc(C(=O)Nc2cccc3ccccc23)c(C(=O)O)c1 | -14.7%[5.75 µM]
O=C(NCc1ccco1)c1ccc(COCC(F)(F)C(F)F)cc1 | -0.3%
CCCNC(=O)Nc1cc(C)on1 | 0.7%
Cc1cc(-c2ccccc2)nc2cc(C(N)=O)nn12 | -0.2%
COc1cc(Cl)c(C)cc1NC(=O)COC(=O)c1cnc(C)cn1 | 50.0%
Cc1nnc2sc(-c3ccco3)nn12 | -14.6%
COc1cccc(OC)c1C(=O)Nc1ccc(N2CCN(S(C)(=O)=O)CC2)cc1 | 7.8%
CCCCCCNC(=O)c1c(N)n(/N=C/c2ccco2)c2nc3ccccc3nc12 | 24.1%
CC1(C)Cc2nc(-c3ccccc3)n3cnnc3c2CO1 | 6.1%
CN(C)CC(=O)N1c2ccccc2CCc2ccc(NC(=O)c3ccc(N)cc3)cc21 | 39.1%
C[C@@H]1[C@@H]2Cc3ccc(O)cc3[C@@]1(C)CCN2CC1CC1 | -10.3%
Cc1nn(C)c(C)c1CN(C)C(=O)c1cnn2c1NC(c1ccccc1)CC2C(F)(F)F (stereo unspecified) | 156.2%
Cc1ccc(NC(=O)Cc2nc(CSc3nnc(-c4ccc5c(c4)OCO5)o3)cs2)cc1 | -15.3%
COC(=O)Nc1ccc(NC(C)=O)cc1 | -6.9%
CCOC(=O)N1CCN(C(=O)C2CCN(S(=O)(=O)c3cc(Cl)ccc3Cl)CC2)CC1 | 98.2%
Cc1nc(NS(=O)(=O)c2cccs2)c2c3c(sc2n1)CCC3 | -13.8%
CC1CCc2cc(F)ccc2N1C(=O)c1ccc2c(c1)OCO2 (stereo unspecified) | 15.3%
COc1ccc(NC(=O)NCCN2CCc3ccccc3C2)cc1 | 6.5%
CCC(C)(C)NC(=O)C(c1ccco1)N(C(=O)Cn1nnc2ccccc21)c1ccc2c(c1)OCO2 (stereo unspecified) | 33.0%
Cc1ccc(CSc2nnnn2C)cc1 | 4.6%
Nc1nnc(SCc2ccccc2Cl)s1 | -7.8%
COc1ccc(OC)c(NC(=O)C2CC(C)=C(C)CC2C(=O)O)c1 (stereo unspecified) | -11.1%
CC(C)(C)CC(C)(C)c1cc(O)c(O)c(CN2CCCCC2)c1 | -5.9%[5.75 µM]
COCCNc1ccnc(-c2ccccc2C(F)(F)F)n1 | 10.8%
Cc1c(NC(=O)c2ccc3c(c2)OCO3)cccc1-c1nc2ccccc2o1 | -2.7%
C=CCSc1nc2c(c(=O)[nH]c(=O)n2C)n1CC | -2.9%
CCCNC(=O)CS(=O)Cc1nc(-c2cccc(OC)c2)oc1C (stereo unspecified) | 3.98µM*[single pt active]
Cc1ccc(C(C)n2cc(C(=O)NCCN3CCN(C)CC3)nn2)cc1 (stereo unspecified) | -9.2%
CCOc1ccc(C2C(=O)N(C3CCCCC3)CC(=O)N2CC2CCCO2)cc1OC (stereo unspecified) | 57.9%
Cc1cc2oc3c(c(=O)c2cc1C)C(c1ccc(C(C)C)cc1)N(CCCN1CCOCC1)C3=O (stereo unspecified) | 167.3%
CCOC(=O)c1cnc(SCC(=O)c2ccc3c(c2)OCCO3)nc1N | 10.8%
COc1ccc2c(CC(=O)OCC(=O)c3ccc(F)cc3)coc2c1 | -6.2%
COC(=O)c1c(-c2ccc(C)cc2)csc1N | 4.5%
Cc1ccc(S(=O)(=O)N2CCN(CCO)CC2)cc1-c1nnc2c3ccccc3c(C)nn12 | 90.0%
COc1cc(CC2C(=O)N(C)C(=O)N(C)C2=O)ccc1OCc1ccccc1 | -6.1%
O=C(NC1CC2CCCC(C1)N2C(=O)NCc1ccccc1)C1CC1 (stereo unspecified) | 1.5%
Cc1onc(-c2ccccc2Cl)c1C(=O)Nc1cnn(Cc2ccccc2)c1 | 16.3%

Reformatted: three of the compounds above.
Compound,AmpC nodet inh
CCOc1ccc(C2C(=O)N(C3CCCCC3)CC(=O)N2CC2CCCO2)cc1OC (stereo unspecified),57.9%
Cc1cc2oc3c(c(=O)c2cc1C)C(c1ccc(C(C)C)cc1)N(CCCN1CCOCC1)C3=O (stereo unspecified),167.3%
CCOC(=O)c1cnc(SCC(=O)c2ccc3c(c2)OCCO3)nc1N,10.8%

Carrying on:
SMILES | AmpC nodet inh
Cc1[nH]c2ccc(-c3n[nH]c(=S)n3C)cc2c1C | -3.9%
NC(=O)CN1CCOCCN(CC(N)=O)CCOCC1 | -1.0%
NS(=O)(=O)c1ccc(NC(=O)CSc2ccccn2)cc1 | -10.2%
Cc1ccc(F)cc1NC(=O)C1CCN(c2cnccn2)CC1 | -3.7%
Cc1nn(C)cc1CN(C)C(=O)c1cc2nc(-c3ccco3)cc(C(F)(F)F)n2n1 | 71.1%
COC(=O)CCCCCNc1ccc(C(=O)OC)cc1N | 15.5%
Cc1ccc(Cl)cc1N1CCN(C(=O)c2cc3c(=O)n(C)c4ccccc4c3n2C)CC1 | 3.98µM*[single pt active]
CC(=O)Oc1ccc(-c2ccc(C(=O)O)cc2)cc1 | -4.7%
COc1cccc(Nc2cc(C)nc3ccccc23)c1 | 3.2%
COCCCNCCOc1cc(C(C)C)ccc1C | -6.4%
COc1cc(C2NC(=O)NC(C)=C2C(=O)OC(C)(C)C)ccc1OCC(N)=O (stereo unspecified) | 7.4%
CCOc1ccc(C2C(C#N)=C(N)Oc3cc(C)n(Cc4ccco4)c(=O)c32)cc1OC (stereo unspecified) | 75.9%
Nc1ccc(O)cc1C(=O)OCC(=O)C12CC3CC(CC(C3)C1)C2 | -9.8%
Cc1cc(C)c2cc3c(ccn3C3OC[C@H](O)[C@H](O)[C@H]3O)cc2n1 (stereo partly specified) | 30.7%
c1nnc(NC2=NCCCCC2)s1 | -3.4%
Cc1nn(CC(=O)Nc2ccccc2)c(=O)c2ccccc12 | -0.8%
[O-][N+]12CC[N+]([O-])(CC1)c1ccccc12 | -7.7%
C1CCCC1 | -1.7%
CNC(=O)NC(=O)CSc1ccc(NC(C)=O)cc1 | 1.2%
Cn1nc(-c2ccc(Cl)cc2)c2cc(C(=O)NCCCN3CCOCC3)sc21 | 123.5%
Cc1ccc2cc(CN(CC(C)C)C(=O)C3CCCO3)c(=O)[nH]c2c1 (stereo unspecified) | 2.9%
CN(C)S(=O)(=O)c1ccc(C(=O)OCC(=O)c2ccc(OC(F)F)cc2OC(F)F)cc1 | -2.7%
COc1ccccc1/C=c1\sc2nc(-c3ccncc3)nn2c1=O | 8.9%
Clc1c(CSc2nc3ccccc3o2)nc2ccccn12 | 62.7%
Cc1ccc(S(=O)(=O)/N=C(\CN2CCCCC2)N2CCOCC2)cc1 | 84.4%
O=c1c2ccccc2oc2ncccc12 | 1.1%
O=c1[nH]c(=O)n(C2CCCO2)cc1Br (stereo unspecified) | -3.7%
CCN(CC)CCOC(=O)c1cccc(OC)c1 | -10.8%
Cc1cccc(CNc2ncncc2-c2cccnc2)c1 | 15.6%
CC(=O)Nc1cccc(NC(=O)C2CCCN2C(=O)Nc2cccc(F)c2)c1 (stereo unspecified) | 2.8%
O=C1CC(N2CCN(c3ccc(S(=O)(=O)N4CCCC4)cc3)CC2)C(=O)N1c1ccc(F)cc1 (stereo unspecified) | 121.6%
O=C1C2C3C=CC(C3)C2C(=O)N1c1ccncc1 (stereo unspecified) | -8.4%
O=C(NCc1ccco1)C(C(=O)c1ccc(F)cc1)n1ccccc1=O (stereo unspecified) | -18.1%
CCN(CC)C(=O)CSc1nnc(CCN)o1 | -1.7%
COc1cc(C(=O)NCCC(=O)NCCN2CCOCC2)cc(OC)c1OC | -12.7%
O=C(OCC(O)C(O)COC(=O)c1ccccc1)c1ccccc1 (stereo unspecified) | 20.3%
Cc1ccc(C(C(=O)NC2CCCCC2)N(C(=O)c2csnn2)C2CCCC2)o1 (stereo unspecified) | 33.6%
CCOc1cccc(OCCCNCCCOC)c1 | 2.4%
CC/C(=C(\c1ccccc1)c1ccc(OCCN(C)C)cc1)c1ccc(O)cc1 | 114.6%
O=C(c1ccncc1)c1nccn1-c1ccccn1 | 5.7%
CCOC(=O)N1CCC(NC(=O)C(Cc2ccccc2)NC(=O)C2CCCCC2)CC1 (stereo unspecified) | 67.0%
Nc1ccc([N+](=O)[O-])cc1N | -7.9%
Oc1ccc([C@@H]2CNCc3sccc32)cc1O | -7.8%
CCCCn1cnc2c(cnn2-c2ccc(F)cc2)c1=O | -1.1%
CCc1n[nH]c2c1/C(=N/O)CCC2 | -2.2%
CCOC(=O)c1ccc(CSc2nnc(N)s2)cc1 | 1.8%
CCCn1nnc(NC(=O)c2ccc(-c3ccccc3)cc2)n1 | -5.1%
CCC1CCCCN1CCCNC(=O)Cn1nc(-c2ccccc2)ccc1=O (stereo unspecified) | 6.5%
Cc1ccc2c(CC(=O)OCc3csc(C)n3)coc2c1 | 37.2%
CCNc1nc(-c2ccc(Cl)cc2)cs1 | 3.5%

2 entries from above, with tabs.
molecule	AmpC nodet inh
CCC1CCCCN1CCCNC(=O)Cn1nc(-c2ccccc2)ccc1=O (stereo unspecified)	6.5%
CCCCn1cnc2c(cnn2-c2ccc(F)cc2)c1=O	-1.1%

Additional structures follow.
SMILES | AmpC nodet inh
Cc1cc(NCCCn2ccnc2)n2nc(-c3ccc(F)cc3)cc2n1 | 48.7%
Cc1sc2nc(CN3CCOCC3)nc(Oc3ccc(NC(=O)c4ccco4)cc3)c2c1C | 130.1%
O=C1CC(c2ccco2)Sc2nc3ccccc3n21 (stereo unspecified) | -11.7%
O=C(CSc1nnc(COc2ccc(Cl)cc2)o1)OC1CCCCC1 | 12.1%
CN1C[C@@H](C(=O)N[C@]2(C)O[C@]3(O)[C@H]4CCCN4C(=O)[C@H](Cc4ccccc4)N3C2=O)C[C@H]2c3cccc4[nH]cc(c34)C[C@@H]21 | 147.2%
Cc1ccc2[nH]c3c(c2c1)CCc1cn[nH]c1-3 | 20.1%
COc1ccc2c(c1)C(=O)CC(c1ccccc1F)O2 (stereo unspecified) | 13.5%
CC(=O)OCc1cc(=O)n(C)c(=O)n1C | -0.1%
COc1ccc(-c2noc(C)c2-c2ccc3ccccc3n2)c(O)c1 | -9.2%
CC1CCN(C(=O)CSc2nc(N)cc(N)n2)CC1 | 1.4%
CCCCNC(=O)Cn1c(=O)n(C)c2ccccc21 | 3.98µM*[single pt active]
CNC(=O)CN(c1cc(C)ccc1OC)S(=O)(=O)c1ccc(C)cc1 | 41.6%
CCSc1nnc(Cn2c(=O)sc3ccccc32)n1C | 3.98µM*[single pt active]
O=C1CCc2cc(S(=O)(=O)N3CCC(C(=O)NCc4ccccc4Cl)CC3)ccc2N1 | 23.2%
CCc1ccc(S(=O)(=O)NCc2csc(-c3ccccc3)n2)s1 | 3.1%
O=C(NC1CCCCCCC1)c1ccc2c(c1)N(Cc1ccc(F)cc1)C(=O)CS2=O (stereo unspecified) | 109.2%
